# Bioassay records deposited in PubChem BioAssay by Fisher Drug Discovery Resource Center.
# NPYLR7 ag = agonists of mosquito NPYLR7 receptor, primary screen, cell-based, Aedes aegypti, calcium fluorescence, mosquito biting behavior; Aedes aegypti neuropeptide Y-like receptor 7 (NPYLR7); HEK293T NPYLR7/Galpha15, GCaMP6s calcium fluorescence; activation, % at 10 µM; 0.15% of 270,000 active; in the data active means activation above about 40%;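 further: 0% = vehicle and 100% = reference agonist at the receptor; some compounds past the cut are filed as inactive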
# NPYLR7 ag max-min = also measured in NPYLR7 ag; calls as there; activation, %; measured here: Max-Min RFU normalised activation; some inactives read as strong as hits;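 span of the calcium signal over five minutes; 0% = vehicle and 100% = native peptide agonist; compound fluorescence can raise it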
# * hit, by the source's call; & = joins results of further samples.
compound | NPYLR7 ag | NPYLR7 ag max-min
O=C(NC1CCc2[nH]c3ccc(Br)cc3c2C1)c1ccc(F)c(F)c1F (stereo not given) | 9 | 9
CC(C)CNC(=O)Cn1nc(-c2ccccc2)nc1-c1ccccc1 | 3 | 2
COc1ccc(CN(C(=O)c2ccccc2Cl)C2CC2)cc1OS(=O)(=O)C(C)C | -11 | -6
COc1cccc(C(=O)N2CCN(C(c3ccccc3)c3ccc(C)cc3)CC2)c1 (stereo not given) | 12 | 17
CC(C)Cn1cc(C(=O)NCC2C3CC4CC(C3)CC2C4)c(=O)c(C(=O)N2CCCCCC2)c1 (stereo not given) | 19 | 9
CC(C)(C)NC(=O)c1cc(-c2ccccc2F)nc2cc(-c3ccccc3)nn12 | 12 | 15
COCCOc1nc(-c2ccc(C(F)(F)F)cc2)n(-c2ccc(NC(=O)c3cccc(OC)c3)cc2)n1 | 22 | 21
CCCc1[nH]n(-c2cccc(Cl)c2)c(=O)c1C1=C([n+]2ccccc2)C(=O)N(C2CCCCC2)C1=O | 8 | 10
Cc1ccc2oc(CN(C(=O)c3cccc(C#N)c3)C(C)C)nc2c1 | 1 | -2
N#Cc1ccc(OCc2cc(F)cc3cccnc23)cc1 | 8 | 3
Cc1nn(-c2nc(C)c(C)c(=O)[nH]2)c(C)c1CCC(=O)NC1CC1 | 1 | -1
Cc1cccc(CSc2nc(Oc3ccc(F)cc3F)cc(C(C)C)n2)c1 | 0 | 4
CCC1SC(c2ccc(F)cc2F)N(CCN(C)S(=O)(=O)c2cccc3cccnc23)C1=O (stereo not given) | 6 | 5
CCc1nn2c(ncc3c(=O)n(-c4nc(SC)n[nH]4)ccc32)c1-c1ccccc1 | 1 | 5
CCCC(=O)N(C)c1nnc(C23CC4CC(CC(C4)C2)C3)s1 | -2 | -3
COCCn1c(C)cc(O)c(C(c2ccccn2)N2CCC(Cc3ccccc3)CC2)c1=O (stereo not given) | 8 | 3
Cc1nc2sccn2c1CN1CCn2nc(C(=O)N3CCCC3)cc2C1 | 9 | 7
O=C(c1ccc(CSc2cccc(C(F)(F)F)c2)cc1)N1C2CCC1CC(Oc1ccc(F)cc1F)C2 (stereo not given) | 26 | 15
CC(=O)N1C=Cc2ccccc2C1CC(=O)NCc1ccccc1C (stereo not given) | -15 | -13
COc1ccc(CC(=O)Nc2c(C)nc3cc(C)ccn3c2=O)cc1OC | -2 | -2
CC(C)n1ccnc1CN1CCC(c2[nH]ncc2Cc2ccccc2)CC1 | 3 | 2
CCOC(=O)C1CCN(C(c2ccco2)C2Sc3nc(CC)nn3C2=O)CC1 (stereo not given) | -2 | 22
CC(C)c1onc(C(=O)N(C)C2CCCCC2)c1[N+](=O)[O-] | 4 | 4
O=C(O)CSc1nnc(-c2ccco2)n1-c1ccccc1C(F)(F)F | -1 | -2
CC1=NN(c2nc(C)cc(C)n2)C(=O)C1Cc1ccccc1 (stereo not given) | 6 | 1
O=C(c1ccccc1)N1CCN2C[C@@H](c3ccccc3)[C@H](CO)[C@H]2C1 | 2 | 4
COc1ccc(C(=O)NCc2nnc(SCc3ccccc3C)n2-c2ccc([N+](=O)[O-])cc2)c(OC)c1 | 1 | 12
OCC1CCCN(CCCn2cnnc2)C1 (stereo not given) | 27 | 21
O=C(NNC(=O)C1CC1)c1ccc(=O)n(Cc2ccccc2)c1 | -11 | -16
COC(=O)c1ccc2c(c1)CC(CNC(=O)COC(C)=O)O2 (stereo not given) | 27 | 19

# Structures above that contain sulfur, in the order listed:
compound | NPYLR7 ag | NPYLR7 ag max-min
COc1ccc(CN(C(=O)c2ccccc2Cl)C2CC2)cc1OS(=O)(=O)C(C)C | -11 | -6
Cc1cccc(CSc2nc(Oc3ccc(F)cc3F)cc(C(C)C)n2)c1 | 0 | 4
CCC1SC(c2ccc(F)cc2F)N(CCN(C)S(=O)(=O)c2cccc3cccnc23)C1=O (stereo not given) | 6 | 5
CCc1nn2c(ncc3c(=O)n(-c4nc(SC)n[nH]4)ccc32)c1-c1ccccc1 | 1 | 5
CCCC(=O)N(C)c1nnc(C23CC4CC(CC(C4)C2)C3)s1 | -2 | -3
Cc1nc2sccn2c1CN1CCn2nc(C(=O)N3CCCC3)cc2C1 | 9 | 7
O=C(c1ccc(CSc2cccc(C(F)(F)F)c2)cc1)N1C2CCC1CC(Oc1ccc(F)cc1F)C2 (stereo not given) | 26 | 15
CCOC(=O)C1CCN(C(c2ccco2)C2Sc3nc(CC)nn3C2=O)CC1 (stereo not given) | -2 | 22
O=C(O)CSc1nnc(-c2ccco2)n1-c1ccccc1C(F)(F)F | -1 | -2
COc1ccc(C(=O)NCc2nnc(SCc3ccccc3C)n2-c2ccc([N+](=O)[O-])cc2)c(OC)c1 | 1 | 12

# (listing goes on)
compound | NPYLR7 ag | NPYLR7 ag max-min
C1CCC(c2nc3c(c(NC4CC4)n2)CNC3)C1 | -2 | -3
COC(=O)c1ccccc1NCc1cc(=O)oc2cc(-c3ccccc3)c(O)cc12 | 9 | 7
CC(C)c1cccc(NC(=O)C(NS(=O)(=O)c2cccs2)C(C)C)c1 (stereo not given) | 4 | 4
COC(=O)C1C(=N)Oc2c(oc(CO)cc2=O)C1c1ccc(Cl)c(Cl)c1 (stereo not given) | 1 | -1
CNc1snc(C)c1C(=O)OCC(=O)c1ccc(C)s1 | -3 | 15
Cc1ccccc1NC(=O)CSC1=Nc2ccccc2C2CC=NN12 (stereo not given) | -4 | -6
CCN1C(=S)NC(c2ccc(NC(=O)c3ccccc3OC)cc2)C(C(=O)OC)=C1C (stereo not given) | 5 | 13
CNc1cc(-c2ccsc2)ncn1 | 2 | 1
O=C(NCc1ccc(F)cc1)c1coc(CN(Cc2cccc(F)c2)Cc2ccc3c(c2)OCO3)n1 | -7 | 10
N#Cc1c(Cl)ncc2c1N(O)c1ccccc1C2OC(=O)c1cccc(Cl)c1 (stereo not given) | 0 | -2
S=C(NCc1ccco1)N1CCC2CCCCC2C1 (stereo not given) | 4 | 3
COCCCn1c(-c2ccc(F)cc2)nc2nc3ccccc3nc21 | 2 | -10
O=C(CSc1ncnc2c1oc1ccccc12)c1cccs1 | -8 | -11
COc1ccc(C(=O)NCc2cc3c(O)n(C4CCCC4)cc3nc2OC)o1 | 3 | 1
COc1ccc(S(=O)(=O)NCC2CCCN(C(=O)CN3CCCC3=O)C2)cc1 (stereo not given) | 10&0 | 5&-1
CCOC(=O)c1c(N)c(C#N)cn1C | -3 | -5
COC(=O)c1c(N)c(C#N)c2n1CCC2 | 4 | 3
CC(=O)N[C@@H](CC(=O)N[C@H](CCC(=O)O)C(=O)O)C(=O)O | 7 | -5
COC(=O)c1c(N2C(=O)C3C4CCC(O4)C3C2=O)sc2c1CCCCCC2 (stereo not given) | 10 | 8
O=C(NC1CCS(=O)(=O)C1)c1ccccc1Nc1ccc(SC(F)F)cc1 (stereo not given) | 14 | 7
CN1C[C@H](Nc2nccc(CCC(F)(F)F)n2)C[C@H]1CO | 6 | 4
O=[N+]([O-])c1cc2c(cc1C=Nn1c(-c3ccccn3)n[nH]c1=S)OCO2 | -2 | -3
CCCC(=O)C1=C(c2ccc([N+](=O)[O-])cc2)N(C(=O)CCC)n2c(CC)nnc2S1 | 6 | 3
O=C(Nc1cccc(F)c1)N1CCCC1c1ccncc1 (stereo not given) | 19 | 15
Cc1ccc(-c2csc(-n3nc(C)cc3NC(=O)CC(C)C)n2)cc1 | -7 | -10
CN1CCN2CCN(Cc3ccc(Cn4cccn4)cc3)CC2C1=O (stereo not given) | 7 | 5
C/C(=C\c1ccccc1)C(=O)Nc1cc(-c2onc3c2CCCC3)ccc1Cl | 4 | 2
CCOc1nc(-c2ccccc2F)n(-c2ccc(NC(=O)c3cc(C(F)(F)F)cc(C(F)(F)F)c3)cc2)n1 | -1 | 3
NC(=O)c1cc2ccc(O)cc2oc1=NCc1ccccc1 | -3 | -7
Cc1cccc(-n2cc(CNCc3ccc(C)o3)c(-c3cccc(F)c3)n2)c1 | 1 | -4
CCC(=O)Nc1ccc(OCC(=O)NCc2cccc(C)c2C)cc1 | -4 | -7
CC(C)S(=O)(=O)C(C)C(=O)NCC1(N(C)C)CCCCCC1 (stereo not given) | 2 | 1
COc1ccc(-c2nnc(NC(=O)C(C)N)s2)cc1 (stereo not given) | -7 | -16
CC1CN(Cc2ccccc2F)CCO1 (stereo not given) | -2 | -2
Oc1oc(-c2cccc3ccccc23)nc1C=Nc1cccc2nsnc12 | 25 | 14
O=C(O)c1cccc(CC2CCN(S(=O)(=O)c3ccccc3)C2)c1 (stereo not given) | 5 | -1
Cc1[nH]ncc1CNC1CCCCC1C(F)(F)F (stereo not given) | -5 | -6
CCCN(CCc1c[nH]c2ccc(NC(=O)c3cc(Cl)cc(Cl)c3)cc12)CC1CC1 | 7 | 2
COc1ccccc1/C=C1N=C(/C=C/c2cccc(Cl)c2Cl)OC\1=O | -1 | -2
Cc1nn(C)c(Cl)c1CN1CCCC(CCC(=O)N2CCN(C)CC2)C1 (stereo not given) | 5 | 3
Cc1nccc(-c2cccc(NC(=O)c3ccc(-n4nc(-c5cccc(C(F)(F)F)c5)cc4N)cc3)c2)n1 | -8 | -17
CCOC(=O)c1nn(-c2ccc(F)cc2)c(Oc2ccc(N)cc2S(=O)(=O)NC2CC2)c1C | 20 | 7
Cc1cnc2c(c1N1CCC(C(N)=O)CC1)c(=O)n(C)c(=O)n2C | 6 | 1
Cc1ccc(OCC(O)CN2CCN(CC(O)COC(C)C)CC2)c(C(C)(C)C)c1 (stereo not given) | 0 | -3
CCC(=O)Nc1ccc(NC(=O)C2CSc3ccccc32)cc1 (stereo not given) | 0 | -1
Cc1ccsc1CN(Cc1ccc(F)cc1)C(=O)CN(C(=O)Nc1c(Cl)cccc1Cl)C(C)C | -4 | 5
C=CCNc1nnc(-c2ccc(Cl)cc2)s1 | 20 | 7
Cc1ccc(Oc2cc(N3CCN(S(=O)(=O)c4ccccc4)CC3)ncn2)cc1 | 8 | 7
Cc1cc(CN2CCC(CNC(=O)c3nccc4ccccc34)C2)n[nH]1 (stereo not given) | 17 | 0
NC(=O)CCNC(=O)c1ccc(SC(F)(F)F)cc1 | -1 | 2

# (more compounds)
compound | NPYLR7 ag | NPYLR7 ag max-min
CCOCCOc1nc(-c2ccco2)n(-c2cccc(NC(=O)c3ccc(OC)cc3)c2)n1 | 17 | 21
CCOC(=O)CN(Cc1cccn1Cc1cccc(C)c1)C(C)C(C)C (stereo not given) | 3 | 4
CS(=O)(=O)c1ccc(NS(=O)(=O)c2cc(Cl)cc(Cl)c2)cc1 | 4 | 4
Cc1ccc(NC(=O)CCN2C(=O)CSC2c2ccc(C(C)(C)C)cc2)cc1 (stereo not given) | -1 | 17
O=C(Cc1ccc(NS(=O)(=O)C2CCCCC2)cc1)N1CCOCC1 | -14 | -16
O=C(COc1ccc(Cl)cc1Br)Nc1ccc2c(c1)OCO2 | 25 | 14
CCCC(=O)OCC(O)CN(CCOC)Cc1cccn1Cc1cccc(OC)c1 (stereo not given) | 0 | 4
O=C(c1ccsc1)N1CCC2(CCCN(Cc3cccnc3)C2=O)C1 (stereo not given) | -1 | -3
CN(C(=O)C1CCN(C2CCN(c3nc4ccccc4o3)CC2)CC1)C1CCOC1 (stereo not given) | 7 | 2
Cc1ccc2nc(SCc3ccc([N+](=O)[O-])cc3)nc(=O)n2c1 | 7 | 6
Cc1ncsc1CCC(=O)N(C)Cc1cc(C(C)C)no1 | 0 | 1
CCCCC(=O)Nc1cccc(C(=O)N(C)Cc2ccncn2)c1 | -4 | -14
CCOC(=O)c1ccc(NC(=O)c2ccc(=O)n(Cc3ccc(C)cc3)c2)cc1 | 10 | 6
CN(CC1CC(c2ccc(F)cc2)=NO1)C(=O)C1CC1 (stereo not given) | 26 | 32
O=C1NC(=S)NC(=O)C1=Cc1cccc(OCCOc2ccccc2)c1 | -5 | -8
CCc1ccc(NC(=O)c2cc3c(=O)n(C)c(=O)n(C)c3n2Cc2ccccc2)cc1 | 0 | -1
CN(CCc1ccccn1)C(=O)[C@H]1c2ccccc2C(=O)N(CCc2c[nH]c3ccccc23)[C@H]1c1ccccc1 | -9 | -17
CCc1ccc(NC(=O)C(C)Sc2nnc(SCC(N)=O)s2)cc1 (stereo not given) | 16 | 15
CSC1=N/C(=C\c2ccccc2F)C(=O)S1 | 6 | 4
CCOC(=O)c1cccnc1N1Cc2cnc(-c3ccccc3)nc2C1 | 6 | 5
CS(=O)(=O)NC1CCCN(C(=O)c2cccc3ncccc23)C1 (stereo not given) | 0 | 0
O=C(NCCc1ccccc1F)N1CCN(C(c2ccc(F)cc2)c2ccc(F)cc2)CC1 | 20 | 7
CCOc1ccc(-c2cc3c(=O)n(CC(=O)NCCCOC)ccn3n2)cc1 | 2 | 1
COc1ccc(-c2cc(N)n(-c3ccc(C(=O)NCc4ccccn4)cc3)n2)cc1 | 4 | 3
N#CCNC(=O)CN(CCc1ccc(Cl)cc1)CC1CC1 | -7 | -8
Cn1cnc(S(=O)(=O)N2CCSc3ccc(C(F)(F)F)cc32)c1 | -1 | -2
COC(=O)NC(c1ccc(C)cc1)C(Cl)(Cl)Cl (stereo not given) | 1 | -2
CN(Cc1ccc2c(c1)OCO2)c1nc2c(cnn2C(C)(C)C)c(=O)[nH]1 | 7 | 6
Brc1ccc(-c2cn3cccnc3n2)cc1 | 3 | 1
Cc1ccc(CN(CC(O)COc2ccccc2)C2CC2)s1 (stereo not given) | 0 | 11
COc1ccc(NC(=O)C2(C)CCN2C(=O)Cc2ccccc2Cl)cc1OC (stereo not given) | -1 | -2
Cc1cnc(CN(C)Cc2cc3n(n2)CCNC3)[nH]1 | 14 | 10
N#Cc1cc2c(nc1SCC(=O)c1ccc(Br)cc1)CCCC2 | 6 | 4
Cc1c(C)c(C)c(S(=O)(=O)N2CCN(C(=O)c3ccc(-n4cncn4)cc3)CC2)c(C)c1C | 2 | -3
COc1ccc(-c2noc(COc3cccc4c3OCCO4)n2)cc1 | 4 | 2
COCCOC1CCN(C(=O)c2cc(COc3ccc(-n4cncn4)cc3)on2)CC1 | -1 | -1

# This is a subset; rates above refer to the full screens.
